# From PubChem
# gsp ag – gsp mutant agonism. gsp mutant cells, cAMP HTRF, 30 min; control for the full effect not named in the record. Potency, µM (top dose mostly 76.9 µM), for the others: at the top dose activation (cAMP increase), actives largely listed as activators. actives 0.13% (n = 340,000). AID 624287; active = well fitted activation curve with a large enough effect; inconclusive = small, poorly fitted or top-dose-only effect, or another doubt; inactive = no such curve, though single readings can be large or run the other way; cell line not stated here;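 further: phosphodiesterase inhibitor Ro 20-1724 added with compounds to block cAMP breakdown; potency means the concentration at half of the fitted maximal effect; nearly all actives have a fitted effect of over 60% in size; about a fifth of the inactives were tested at one dose only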
#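 Cells in DMEM/10% FBS with G418 were pretreated with compounds in DMSO plus […] (300 uM stock) for 30 min at 37C. cAMP was measured by HTRF (cAMP-d2 plus anti-cAMP antibody-K) after 30 min at room temperature.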
# gsp antag – antagonizes gsp, the McCune-Albright syndrome mutation. gsp-mutant cells, cAMP HTRF, 30 min; control for the full effect not named in the record. Potency, µM (highest dose often 76.9 µM), for inactives: top-dose activity change, negative = inhibition, hits mostly inhibitors. actives 0.4% (n = 340,000); active = falling curve of any shape with a large fitted effect; inconclusive = falling curve, mostly with a smaller effect; inactive = flat or rising curve; cell line not stated here;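 further: intracellular cAMP measured with PDE inhibitor Ro 20-1724 present during compound exposure; potency means the concentration at half of the fitted maximal effect; on the % scale 0 is the no-effect control and ±100 the full control effect; nearly all actives have a fitted effect of over 65% in size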
#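 Cells, 2000/well, grown 16–24 h in DMEM 10% FBS with 0.5 mg/ml G418, then compounds plus […] (300 uM addition stock), 30 min at 37C. cAMP read by HTRF (cAMP-d2 and anti-cAMP antibody-K in lysis buffer) after 30 min RT.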
# CtBP-E1A inh – inhibitors of CtBP/E1A interaction; AlphaScreen GST-E1A/His-CtBP binding, 1536-well; hits give low values; control for the full effect not named in the record; activity change, % (no concentration beside the values); actives 0.49% (n = 340,000); in the data active means activity change below about -65%; inconclusive means about -30% to -65%; inactive means above about -30%; further: on the % scale 0 is the no-effect control and ±100 the full control effect; compound concentration not given in the record
#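 Protein mix (5X: 125 nM each GST-E1A, His-CtBP) was incubated with pinned compound 2 h at 37 deg C in dark, in 50 mM Tris pH 8.0 buffer with 300 mM NaCl. Glutathione donor and nickel acceptor beads followed; AlphaScreen signal read after 1 h.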
# Sfp PPTase inh – Sfp phosphopantetheinyl transferase inhibition | Biochemical Sfp PPTase activity, qHTS | Potency, µM, for inactives: max response, negative = inhibition, hits mostly inhibitors | actives 3.5% (n = 310,000); active means well fitted inhibition curve with a large enough effect; inconclusive means small, poorly fitted or top-dose-only effect, or another doubt; inactive means no such curve, though single readings can be large or run the other way;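 further: the enzyme is Sfp with the accession as filed and its product quenches rhodamine fluorescence; potency means the concentration at half of the fitted maximal effect; 0% = enzyme reaction without inhibitor and -100% = no enzyme wells; top concentration of the series not given in the record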
#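 After 15 min at room temperature with compound, 15 nM Sfp received 5 uM rhodamine-CoA plus 12.5 uM BHQ-2-ybbR (50 mM Hepes pH 7.6, 10 mM MgCl2). Rate came from the fluorescence difference over 30 min, ex 525/em 598 nm.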
# ClpP mod – qHTS Assay for Activators of ClpP. purified B. subtilis ClpP, FRET peptide cleavage, 20 min. ATP-dependent Clp protease proteolytic subunit (Bacillus subtilis (strain 168)), P80244. actives 1.9% (n = 340,000). Potency, µM (titrated, usually from 57.5 µM), without a hit: at the highest dose activity change, negative = active; active = well fitted falling curve with a large enough effect; inconclusive = small, poorly fitted or top-dose-only effect; inactive = no such curve, though single readings can be large or run the other way; further: potency means the concentration at half of the fitted maximal effect; the source files actives as falling curves though it sought activators and does not explain the sign; nearly all actives have a fitted effect of over 65% in size; many hits overshoot -100%
# Target sequence (P80244 whole entry, looked up): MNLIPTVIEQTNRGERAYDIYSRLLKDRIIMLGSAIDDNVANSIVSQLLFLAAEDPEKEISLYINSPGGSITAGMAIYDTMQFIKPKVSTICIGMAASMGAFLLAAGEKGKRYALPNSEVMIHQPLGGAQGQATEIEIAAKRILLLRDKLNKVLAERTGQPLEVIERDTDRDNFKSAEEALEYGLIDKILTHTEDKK
#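 ClpP 10 microg/mL final, pH 8 Tris/KCl buffer with BSA, glycerol, Tween-20; compound pinned in; FRET-FV substrate; RT 20 min; Ex320/Em430; ΔFRET vs ADEP 5.8 microM, DMSO, no enzyme.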
# Menin-MLL FL inh – displaces fluorescein MLL peptide from human menin; Fluorescence polarization, fluorescein-MLL peptide displacement from menin; FP activity change, % at 61.4 µM; 290,000 tested, under 10 active; AID 1766; inconclusive = falling polarisation curve, or a change in total fluorescence; inactive = total fluorescence flat and polarisation flat or rising; no compound was filed as active; the % refers to the polarisation; negative = inhibition;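 further: % of control where 0% means no effect; inhibitors lower the polarisation; unlabelled MLL peptide was the positive control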
# TRPV1 potentiator – potentiators of human vanilloid receptor 1 (TRPV1); Q8NER1; AID 540277; potentiation, % at 8.33 µM; actives 0.02% (n = 320,000); TRPV1-expressing cells, Fluo-8 calcium influx, capsaicin EC20 potentiation; host cell line not named in the record; control for the full effect not named in the record; active means potentiation above 80%; inconclusive means 30% to 80%; inactive means below 30%; further: 0% is about no effect
# Target sequence (Q8NER1 whole entry, looked up): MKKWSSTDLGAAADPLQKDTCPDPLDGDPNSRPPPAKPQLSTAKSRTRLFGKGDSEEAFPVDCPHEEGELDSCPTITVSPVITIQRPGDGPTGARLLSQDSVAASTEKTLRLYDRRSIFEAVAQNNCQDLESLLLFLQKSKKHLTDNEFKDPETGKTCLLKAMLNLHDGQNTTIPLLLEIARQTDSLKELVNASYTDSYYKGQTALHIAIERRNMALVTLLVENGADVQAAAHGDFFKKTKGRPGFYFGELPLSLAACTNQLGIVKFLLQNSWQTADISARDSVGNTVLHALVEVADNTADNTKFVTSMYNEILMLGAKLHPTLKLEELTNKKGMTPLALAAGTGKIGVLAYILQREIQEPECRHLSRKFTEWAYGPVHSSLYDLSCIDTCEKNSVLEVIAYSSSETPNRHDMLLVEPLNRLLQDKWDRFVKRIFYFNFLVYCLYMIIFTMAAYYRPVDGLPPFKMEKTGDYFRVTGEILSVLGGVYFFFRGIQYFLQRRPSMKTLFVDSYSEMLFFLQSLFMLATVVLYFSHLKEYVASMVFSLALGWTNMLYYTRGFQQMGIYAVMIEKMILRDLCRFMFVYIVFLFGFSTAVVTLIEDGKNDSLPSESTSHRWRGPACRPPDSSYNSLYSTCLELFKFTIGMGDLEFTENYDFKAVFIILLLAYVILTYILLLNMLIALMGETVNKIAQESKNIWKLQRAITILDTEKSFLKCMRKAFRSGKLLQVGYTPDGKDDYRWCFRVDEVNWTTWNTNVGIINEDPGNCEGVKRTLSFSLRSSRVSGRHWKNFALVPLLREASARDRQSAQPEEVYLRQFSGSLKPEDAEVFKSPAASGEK
#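 Cells expressing TRPV1 were dye-loaded with Fluo-8 and read kinetically: 10 s baseline, 3 min after compound (agonist portion), then 2 min after EC20 capsaicin (allosteric enhancer portion). Calcium-bound dye fluorescence at 480/520 nm.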
# Numbers without * were called inactive; ? = inconclusive; · = not tested or not shown; & = joins results of further samples; [ ] = another dose, or the depositor's remark.
# Every second line gives: gsp antag	CtBP-E1A inh	gsp ag	TRPV1 potentiator	ClpP mod	Sfp PPTase inh	Menin-MLL FL inh
Cc1noc(C)c1CSCC(=O)OCC(=O)Nc1sccc1C#N
 : -30%	-1	16%	-4	-2.3%	4%	0.8
Cc1nnc(CN(C)C(=O)c2cc(COc3ccc(F)cc3Cl)on2)o1
 : 9%	6	9%[15.4 µM]	2	0.2%	1%	·
Cc1ccc(NC(=O)C2c3ccccc3Oc3ccccc32)c(C)c1
 : -4%	-11	2%	11	-27%	-6%	4.8
Cc1ccc(-n2[nH]c(C)c(C=Nc3cc(C)ccn3)c2=O)cc1
 : -12%	-1	5%	1	0.1%	-3%	-1.9
CCCNC(=O)C(Cc1ccccc1)NC(=O)c1ccc(C(C)(C)C)cc1 (stereo not given)
 : 8%	4	·	-17	-2.7%	·	·
N/C(=N\OC(=O)COc1ccccc1Cl)c1ccccn1
 : 3%	0	8%	20	14µM*	-58%	0.1
COc1cc(C(=O)OCCn2c(=O)c3c(ncn3CCN(C)C)n(C)c2=O)cc(OC)c1OC
 : 0%	1	0%	11	-1.5%	-4%	-0.1
CN(C)C(=O)N1CCN(C(=O)c2ccco2)CC1
 : 7%	3	10%	-5	-2.5%	10%	2.7
C#CCOCCOCCOCCNc1nc(N2CCN(C(=O)Cn3cc(CCCN=C(N)N)nn3)CC2)nc(N2CCN(C(=O)[C@H](CCCCN)n3cc(CCC(=O)O)nn3)CC2)n1
 : 11%	-11	·	9	-0.9%	·	·
O=C(Nc1nc2ccccc2s1)c1cccc(N2C(=O)CCC2=O)c1
 : -7%	4	-52%[inhibitor]	-4	1.6%	3%	·
Cn1c(O)c(N=NC(=O)C2COc3ccccc3O2)c2ccccc21 (stereo not given)
 : 3%	-10	13%	?	0.5%	-3%	-0.4
COc1ccc(C2OC(=O)CC2C(=O)NCc2ccc(F)cc2)cc1OC (stereo not given)
 : 3%	-14	18%	-10	·	0%	0.9
OCc1c(OCc2cccc(F)c2)ccc2ccccc12
 : -13%	·	2%	?	-1.8%	-3%	-3.4
COc1cccc(NC(=O)c2ccc(NC(C)=O)cc2)c1
 : -10%	5	?	3	-1.6%	9%	1.5
CC(CCc1ccccc1)NC(=O)CNC(=O)c1ccccc1Br (stereo not given)
 : 13%	3	-16%	-5	-2.7%	4%	·
CC#CCOCC1CNC(=O)O1 (stereo not given)
 : ·	-1	-46%[inhibitor]	·	1.0%	·	·
CCOc1ccc(CN(C(=O)/C=C/c2ccco2)C2CCS(=O)(=O)C2)cc1 (stereo not given)
 : -14%	1	?	3	-2.1%	?	8.2
O=C(c1ccco1)N1CCCC(c2nc3c(nnn3Cc3ccc(F)cc3)c(=O)[nH]2)C1 (stereo not given)
 : -9%	4	9%[15.4 µM]	1	·	-2%	2.7
O=C(O)c1cccc(S(=O)(=O)N2CCN(S(=O)(=O)c3ccc4ccccc4c3)CC2)c1
 : -2%	-1	?	6	1.2%	·	·
Cc1cccc(OCC(O)Cn2c(=N)n(Cc3ccccc3)c3ccccc32)c1 (stereo not given)
 : 9%	·	13%	17	-1.8%	-7%	-3.3
CCC1CCCCN1S(=O)(=O)c1ccc2c(c1)CCN2C(=O)C1CCC1 (stereo not given)
 : -18%	5	-22%	-21	-2.0%	1%	-0.8
COc1ccc(NC(=O)CSc2ccc(-c3ccco3)nn2)cc1OC
 : -7%	-6	5%[15.4 µM]	10	-1.4%	45µM*	·
Cc1nc2c(cc1N)nc(C)n2Cc1ccccc1
 : 4%	-3	-14%[15.4 µM]	0	-2.0%	16%	3.4
C#CCOc1ccc(/C=C2/C(=O)N(c3ccc(S(N)(=O)=O)cc3)N=C2C)cc1OC
 : ·	3	-63%[inhibitor]	·	2.9%	·	·
COc1ccc2c(CC(=O)N3CCN(S(=O)(=O)c4ccc(F)cc4)CC3)coc2c1
 : -9%	0	-8%	-21	-2.0%	·	·
Cc1ccc(CNC(=O)C2CCN(S(=O)(=O)c3ccc4nc5c(c(C(=O)O)c4c3)CC(C)CC5)CC2)cc1 (stereo not given)
 : 9%	·	-4%	5	-1.7%&-0.3%	13%	0.1
CCOc1ccc(CCNC(=O)CN(C)S(=O)(=O)c2cccc3nsnc23)cc1OCC
 : -3%	0	10%	-9	2.1%	6%	0.6
Cc1cccc(N(C(=O)c2snc(C(N)=O)c2N)C(C(=O)NCc2ccccc2)c2ccncc2)c1 (stereo not given)
 : -1%	0	10%	6	·	15%	2.8
NS(=O)(=O)c1cccc(NC(=S)NCc2ccccc2)c1
 : 2%	3	1%	-1	·	7%	-4.4
O=C(CN1C(=O)N/C(=C\c2ccccc2OCc2ccc(C(=O)O)cc2)C1=O)Nc1ccc(F)cc1
 : -2%	-11	-25%	4	·	2%	1.3
CCn1cc(CNC(=O)c2cc([N+](=O)[O-])c(C)c([N+](=O)[O-])c2)cn1
 : 10%	-3	-15%[15.4 µM]	-6	-6.2%	8%	0.1
CC(=O)OCCCCCCCCCCC[N+]1(C)CCCCC1
 : 1%	8	1%	2	1.7%	4%	-0.4
O=C(Nc1ccc(SC(F)F)cc1)c1ccc2nccnc2c1
 : ?	48	-47%[inhibitor]	-26	1.0%	-20%	0.9
O=C(Nc1cc(S(=O)(=O)N2CCOCC2)ccc1O)c1ccc2c(c1)S(=O)(=O)c1ccccc1C2=O
 : 8%	-24	14%[15.4 µM]	-3	·	20µM*	-7.4
O=C(CCc1nc2ccccc2[nH]1)Nc1ccc2c(c1)OCCO2
 : 8%	10	-18%	8	-0.2%	-3%	0.4
Fc1ccc(-c2ccnn2-c2ccccc2)cc1
 : 8%	1	1%	-3	-1.3%	4%	0.0
C=CCNC(=O)CN1CCC(n2nnc3cc(C(F)(F)F)ccc32)CC1
 : ·	-14	-6%[15.4 µM]	2	·	-1%	-0.2
Cc1cccc(N2CCN(C(=O)CCNS(=O)(=O)c3ccc4c(c3)oc(=O)n4C)CC2C)c1 (stereo not given)
 : -20%	-2	-17%	-22	1.3%	22%	·
CN(C(=O)COC(=O)c1ccccc1SCC(=O)N1CCCC1)c1ccccc1
 : -8%	9	-17%	6	1.5%	12%	-2.9
CC(C)C(=O)Nc1cc(S(=O)(=O)Nc2ccc(Cl)cc2)ccc1Cl
 : -13%	-11	15%	-5	-2.5%	16%	0.7

# Three compounds from above, ordered by the number in Sfp PPTase inh, high to low.
Molecule | gsp antag | CtBP-E1A inh | gsp ag | Sfp PPTase inh | Menin-MLL FL inh
CCOc1ccc(CCNC(=O)CN(C)S(=O)(=O)c2cccc3nsnc23)cc1OCC | -3% | 0 | 10% | 6% | 0.6
CC(=O)OCCCCCCCCCCC[N+]1(C)CCCCC1 | 1% | 8 | 1% | 4% | -0.4
CCC1CCCCN1S(=O)(=O)c1ccc2c(c1)CCN2C(=O)C1CCC1 (stereo not given) | -18% | 5 | -22% | 1% | -0.8

# Returning to the listing, repeating the 3 entries before the break.
# Every second line gives: gsp antag	CtBP-E1A inh	gsp ag	TRPV1 potentiator	ClpP mod	Sfp PPTase inh	Menin-MLL FL inh
Cc1cccc(N2CCN(C(=O)CCNS(=O)(=O)c3ccc4c(c3)oc(=O)n4C)CC2C)c1 (stereo not given)
 : -20%	-2	-17%	-22	1.3%	22%	·
CN(C(=O)COC(=O)c1ccccc1SCC(=O)N1CCCC1)c1ccccc1
 : -8%	9	-17%	6	1.5%	12%	-2.9
CC(C)C(=O)Nc1cc(S(=O)(=O)Nc2ccc(Cl)cc2)ccc1Cl
 : -13%	-11	15%	-5	-2.5%	16%	0.7
CC1(C)CC(NC(=O)c2ccc(Cl)c(S(=O)(=O)N(Cc3ccccc3)c3ccccc3)c2)CC(C)(C)N1
 : -1%	-9	-32%[inhibitor]	9	-1.0%	·	·
CCOc1cc(C2C(C(=O)c3ccc(C)o3)=C(O)C(=O)N2CCc2ccccc2)ccc1O (stereo not given)
 : -14%	-1	-6%	13	-2.0%	1%	6.5
Cc1ccc(N(C(=O)CNC(=O)c2ccco2)C(C(=O)NC2CCCC2)c2ccncc2)cc1 (stereo not given)
 : 4%	2	-6%	-2	·	19%	1.3
NC(=O)c1nsc(C(=O)N(Cc2cccnc2)C(C(=O)NC2CCCCC2)c2ccc(F)cc2)c1N (stereo not given)
 : -6%	3	?	-20	·	20%	-1.0
Cn1c(=O)c(C(=O)COc2ccc(F)cc2Cl)c(N)n(Cc2ccccc2)c1=O
 : ?	7	8%	-1	·	7%	2.2
O=C(Cn1ccc2ccccc2c1=O)NCCC(=O)N1CCN(C(=O)c2ccco2)CC1
 : 8%	6	-33%[inhibitor]	·	?	·	·
O=C(CSc1ccccc1)Nc1ccccc1C(=O)N1CCCC1
 : -2%	·	-11%	14	-0.7%	13%	1.5
c1ccc(CNCCC(Cc2ccccc2)c2ccco2)cc1 (stereo not given)
 : 3%	3	-2%[15.4 µM]	-27	7.1%	0%	10
Cc1nc2nc(-c3ccc(Cl)cc3)[nH]n2c(=O)c1Cc1ccccc1
 : 6%	-4	6%	17	-13%	20%	3.8
CCn1c(SCC(=O)NCc2ccco2)nc2c1c(=O)n(C)c(=O)n2C
 : 2%	2	?	-10	-0.4%	7%	-1.1
COc1ccccc1CN1CCN(S(=O)(=O)c2ccccc2)CC1
 : -7%	1	-11%	0	0.8%	?	-0.2
CCC1(C)Cc2c(sc3nc(SC)nc(NCCN(C)C)c23)CO1 (stereo not given)
 : 9%	-4	?	-17	-6.9%	1%	1.3
O=C(NC1CC1)C1=C[C@@H](c2ccccc2)C[C@@H](OCc2ccc(CO)cc2)O1
 : -6%	3	·	-5	-1.4%	14%	0.0
Cc1cccc(CCN2C(N(C)C)=NC[C@@H]2CC(C)C)c1
 : -6%	8	6%	11	-0.5%	·	·
Nc1nonc1OCCc1ccccc1
 : 4%	7	6%	6	0.9%	14%	0.5
CCN(CC)S(=O)(=O)c1ccc(N2C(=O)CC2(/C=C/c2ccccc2)C(=O)NC2CCCC2)cc1 (stereo not given)
 : 11%	-19	5%	9	?	2%	-2.6
